Source: PubChem BioAssay (National Center for Advancing Translational Sciences (NCATS))
PINK1 modulator: PINK1 expression modulation | PINK1 immunofluorescence, high-content cytometry, 24 h | Potency, µM (top dose mostly 76.6 µM), for inactives: at the top dose activation (PINK1 increase), hits mostly activators | 410,000 tested, 0.2% active | AID 624263; active = well fitted activation curve with a large enough effect; inconclusive = small, poorly fitted or top-dose-only effect; inactive = flat fitted curve, though single readings scatter; cell line not stated here;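 note: % of control where 0% means no effect; nearly all actives have a fitted effect of over 65% in size; a mitochondrial uncoupler was the plate control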
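PINK1 protein, normally rapidly degraded, was detected by immunofluorescence after 24 hour compound treatment of a stable cell line. Titration data (5 concentrations) came from laser-scanning cytometry, with CCCP-treated wells as controls.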
ClpP mod: qHTS Assay for Activators of ClpP; ATP-dependent Clp protease proteolytic subunit (Bacillus subtilis (strain 168)), P80244; AID 651965, 2013; Potency, µM (titrated, usually from 57.5 µM), for the others: at the highest dose activity change, negative = active; purified B. subtilis ClpP, FRET peptide cleavage, 20 min; 340,000 tested, 1.9% active; active = well fitted falling curve with a large enough effect; inconclusive = small, poorly fitted or top-dose-only effect; inactive = no such curve, though single readings can be large or run the other way; note: the source files actives as falling curves though it sought activators and does not explain the sign; nearly all actives have a fitted effect of over 65% in size; many hits overshoot -100%
Target sequence (P80244 whole entry, looked up): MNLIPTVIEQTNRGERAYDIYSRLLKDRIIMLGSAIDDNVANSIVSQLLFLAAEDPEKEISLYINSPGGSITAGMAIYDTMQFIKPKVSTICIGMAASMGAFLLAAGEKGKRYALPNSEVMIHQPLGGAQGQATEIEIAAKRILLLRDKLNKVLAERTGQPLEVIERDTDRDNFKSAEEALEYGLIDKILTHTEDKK
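Buffer: 100 mM Tris/HCl pH8, 100 mM KCl, 0.05% low protease BSA, 2.5% glycerol, 0.01% Tween-20. ClpP 10 microg/mL final; 20 min RT; delta FRET normalized to ADEP and DMSO controls.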
* = called active by the depositor; ? = inconclusive; & = joins results of further samples. Potency is the fitted concentration of half-maximal effect. Only part of the results is shown. The share of hits here may be higher or lower than overall.

The line under a structure holds: PINK1 modulator	ClpP mod
COC(=O)c1cccc(OCCCN2CCC(C(O)(c3ccccc3)c3ccccc3)CC2)c1
 : -1.1%	-2.4%
CCCCn1cc2c(c1-c1ccc(Br)cc1)c(=O)n(C)c(=O)n2C
 : 0.7%	4.1%
CCOc1ccccc1C(=O)N(Cc1cccs1)c1ccc(Cl)cc1
 : 7.8%	0.5%
COc1ncc(-c2ccc(N3C(c4ccsc4)=Cc4ccc(F)cc4C3CC(C)=O)cc2)cn1 (stereo not given)
 : -1.1%	4.6%
O=c1oc2ccc3ccccc3c2cc1-c1nc2c(s1)CCc1ccccc1-2
 : 1.1%	-23.5%
COc1ccc2c(CNCc3cccs3)c(C(=O)O)n(Cc3ccc(F)cc3)c2c1
 : -1.3%	-16.7%
COc1cccc(NC(=O)c2nnn(Cc3ccc(OC)c(Br)c3)c2N)c1
 : 3.6%	-15.6%
Cc1ccc(NC(=O)CN2CCSc3ccc(S(=O)(=O)N4CCCC4)cc32)cc1
 : 1.1%	3.9%
Cc1ccc(N2CCN(C(=O)Cc3c(C(=O)O)c(C)cn3C)CC2)c(C)c1
 : 0.5%	-0.5%
Cc1ccc(-n2c(=O)c3c4c(sc3n(CC(=O)c3ccc(Cl)cc3)c2=O)CCC4)cc1C
 : -0.7%	0.1%
Cc1nc2c(c(C)nn2-c2ccccc2)c(C)c1CCC(=O)NCCc1ccccc1
 : 0.3%	4.6%
O=C(C[n+]1cc(Br)cc(Br)c1)c1ccc2ccccc2c1
 : 0.1%	-1.9%
COc1ccc(-c2noc(-c3ccc(N4CCCC4)c([N+](=O)[O-])c3)n2)cc1
 : 1.1%	2.4%
Cc1cccc(C(=O)Nc2nnc(S(=O)(=O)N(C)Cc3ccc(Cl)cc3)s2)c1
 : 0.1%	?
Cc1ccc(Cl)cc1-n1ncc2c(N3CCCCCC3)ncnc21
 : 10.2%	-8.9%
CCOC(=O)COc1ccc(C)cc1C(=O)c1ccn2nc(-c3ccc(Cl)cc3)cc2n1
 : -0.1%	-2.3%
O=C(Nc1cccc(Cl)c1)c1cc(-c2ccccc2)on1
 : 1.6%	8.8%
COc1ccc(-c2nnc(SCC(=O)Nc3cccc(F)c3)s2)cc1
 : 0.3%	-19.8%
O=C(Nc1nnc2n1CCS2)c1ccc(F)cc1F
 : 0.7%	-5.8%
CC(NC(=O)c1ccc2c(c1)N(Cc1ccc(Cl)cc1)C(=O)c1ccccc1S2=O)c1ccccc1 (stereo not given)
 : -0.6%	-4.0%
CS(=O)(=O)N(CC(=O)NCCSc1ccccc1)c1cc(C(F)(F)F)ccc1Cl
 : 0.5%	-1.6%
Cc1ccc(-c2nc3c(C)cc(Br)cn3c2Cc2cccc(F)c2)cc1
 : 2.8%	-7.8%
CC1=C(C(=O)Nc2ccccc2)C(c2ccc[nH]2)n2ncnc2N1 (stereo not given)
 : -0.1%&-0.3%	-11.1%&-14.8%
CCc1ccc(NC(=O)C(=O)NCC(c2cccnc2)N2CCN(C)CC2)cc1 (stereo not given)
 : 1.6%	-1.5%
COc1ccccc1-c1nn2c(=O)cc(CN3CCN(C(=O)/C=C/c4ccccc4)CC3)nc2s1
 : -1.4%	4.2%
COc1ccc(CNC(=O)c2cc3c(s2)-c2c(C)cccc2OC3)cc1
 : -1.1%	3.6%
COc1ccccc1CNC(=O)c1ccc2c(c1)N(Cc1ccc(C)cc1)CCS2
 : 8.4%	4.3%
Cc1nc2nc[nH]n2c(=O)c1CCC(=O)Nc1ccc(F)cc1
 : 2.2%	-0.5%
CSc1ncc(C(=O)NCc2ccc(F)cc2)c(-c2ccccc2)n1
 : 0.4%	-1.7%
COc1ccc(N2CCN(CC(O)COc3ccc(C(C)(C)C)cc3)CC2)cc1 (stereo not given)
 : 2.6%	-7.4%

Further compounds:
The line under a structure holds: PINK1 modulator	ClpP mod
Cc1ccccc1C(=O)n1nc(-c2ccco2)nc1NCc1ccc(Cl)cc1
 : -1.3%	-0.5%
CCc1ccc(CNC(=O)c2ccc3nc(C(C)C)oc3c2)cc1
 : 0.2%	0.2%
O=C(CSc1nnc(CNC(=O)c2c(F)cccc2Cl)o1)Nc1ccccc1F
 : 0.8%	0.3%
Cc1ccc(-n2nc3c(N4CCC(C(=O)NC5CCC(C)CC5)CC4)nnc(C)c3c2C)cc1 (stereo not given)
 : 1.0%	?
COCCCNC(=O)CCCn1c(=O)c2ccccc2n(CC(=O)Nc2ccc(C)cc2Cl)c1=O
 : 0.6%	-13.8%
Cc1cccc(C(=O)Nc2ccccc2OCc2cc(=O)n3c(C)csc3n2)c1
 : 0.4%	-0.6%
COc1ccc(CNC(=O)c2ccc(-c3nc(CSc4ccccc4)c(C)o3)cc2)cc1
 : 5.2%	4.6%
COc1cccc(CNC(=O)C2(c3cccs3)CCOCC2)c1
 : 0.8%	0.8%
CCOC(=O)Cc1c(C)nc2c(-c3ccc(Cl)cc3)c(C(F)(F)F)nn2c1C
 : 13.6%	-11.3%
Cn1nnc2c(N3CCN(c4ccccc4F)CC3)ncnc21
 : 1.3%	0.9%
Cc1ccc(Cl)cc1NC(=O)Cc1ccc(-n2c(C)nc3cccnc32)cc1
 : 0.9%	1.4%
CCc1ccc(NC(=O)CCCn2nc(C)c3c(C)n(-c4ccccc4)nc3c2=O)cc1
 : 0.9%	-0.1%
Cc1cc(C)c(NC(=O)Cn2c(=O)n(CC(=O)NCc3ccccc3Cl)c(=O)c3sccc32)c(C)c1
 : 5.5%	1.3%
COc1ccc(CNc2nc3c(c(=O)n(C)c(=O)n3C)n2Cc2ccccc2Cl)cc1
 : 0.4%	-0.5%
CC(C)C[C@@H]1COc2cc(N(C)CCO)ccc2S(=O)(=O)N1
 : 0.0%	-2.7%
O=C(NCc1ccncc1)[C@@H]1CCCN1C(=O)[C@@H]1CCCN1C(=O)c1cccs1
 : -0.5%	1.6%
CCc1c(-c2ccccc2)nc2ccccc2c1C(=O)NC(C)c1ccccc1 (stereo not given)
 : 0.0%	-1.4%
CC(=O)Nc1ccc(NC(=O)Cn2c(=O)ccc3cc(S(=O)(=O)N4CCC(C)CC4)ccc32)cc1
 : -1.2%	1.6%
COc1cccc(N2CCN(C(=O)c3c4c(nc5ccccc35)C(=O)N(C3CCCCC3)C4)CC2)c1
 : 1.2%	-0.6%
Cc1ccc(-n2nc(C(=O)NC(C)C)c(=O)n(C)c2=O)cc1
 : 1.6%	-3.0%
COc1ccc(N2CCN(c3csc4ccc(Cl)cc4c3=O)CC2)cc1
 : 1.6%	-10.3%
COc1ccc(-n2c(/C=C/c3cccc(C(F)(F)F)c3)nc3ccccc3c2=O)cc1Cl
 : 10.0%	-0.3%
CC(C)NC(=O)N1Cc2cc(C(=O)NC3CCCC3)nc(-c3cccc(-c4cccnc4)c3)c2[C@@H]1CCO
 : -0.1%	0.9%
COc1cc(OC)c(N(C)C(=O)Nc2cn(CC(C)C)c(=O)c3ccccc23)cc1Cl
 : -3.5%	3.9%
Cc1ccc(F)cc1NC(=O)Cn1c(=O)nc(-c2ccccc2F)c2cc(Cl)ccc21
 : 0.4%	-3.7%
Cc1cc(C)c(Cn2c(=O)n(-c3ccccc3Cl)c(=O)c3c(C)c(C(=O)N(C)C)sc32)c(C)c1
 : 1.4%	1.1%
Cc1ccc(NC(=O)C(=O)NCC(c2cccnc2)N2CCN(C)CC2)cc1C (stereo not given)
 : 0.1%	-2.4%
CCOc1ccc(NC(=O)Cn2c(=O)n(Cc3ccc4c(c3)OCO4)c(=O)c3ccc(C(=O)NC4CCCCC4)cc32)cc1
 : -4.2%	-11.1%
CCSc1nnnn1-c1cccc(C(=O)O)c1
 : 0.6%	-1.3%
CCn1cc(S(=O)(=O)c2ccc(OC)cc2)c(=O)c2cc(F)c(N3CCC(C)CC3)cc21
 : 0.3%	?

Some of the entries so far, with each value named:
CCOc1ccc(NC(=O)Cn2c(=O)n(Cc3ccc4c(c3)OCO4)c(=O)c3ccc(C(=O)NC4CCCCC4)cc32)cc1
  PINK1 modulator: -4.2%; ClpP mod: -11.1%
CCSc1nnnn1-c1cccc(C(=O)O)c1
  PINK1 modulator: 0.6%; ClpP mod: -1.3%
CCn1cc(S(=O)(=O)c2ccc(OC)cc2)c(=O)c2cc(F)c(N3CCC(C)CC3)cc21
  PINK1 modulator: 0.3%; ClpP mod: ?

(more compounds)
The line under a structure holds: PINK1 modulator	ClpP mod
CCOc1ccc(NC(=O)c2ccc3c(SCC(=O)O)c4c(nc3c2)CCC4)cc1
 : 3.7%	-0.3%
CCCCc1nnc(SCc2cc(=O)c3cc(C(=O)OCC)ccc3[nH]2)n1C
 : 2.7%	-19.7%
COc1ccc(Cl)cc1NC(=O)c1cnc(SC)nc1-c1ccccc1
 : 1.5%	?
CCOc1cc(CNC(=O)NC2COc3ccccc3C2)cc(OCC)c1OCC (stereo not given)
 : 1.9%	0.4%
OCCN1CCN(c2ncnc3c2cnn3-c2cccc(Cl)c2)CC1
 : 0.0%	-2.1%
CN(C)c1ccc(CNC(=O)CN2C(=O)CCn3nc(-c4cn(C)c5ccccc45)cc32)cc1
 : 2.9%	-1.2%
CCOC(=O)c1cccc(NC(=O)c2cc(S(=O)(=O)N3CCCC3)cn2C)c1
 : -0.3%	-1.0%
COc1ccc(CSc2nc3ccncc3n2CC(=O)Nc2ccc(C)c(F)c2)cc1
 : 6.2%	?
CCOc1ccc(NC(=O)c2oc3ccccc3c2NC(=O)COc2cccc(OC)c2)cc1
 : 0.7%	32.7%
CS(=O)(=O)N1CCC(N2CCN(Cc3ccc(F)cc3)C(=O)C2=O)CC1
 : 0.4%	-2.1%
COCCNC(=O)CCn1c(=O)c2cc(OC)c(OC)cc2n(CC(=O)Nc2ccc(F)c(Cl)c2)c1=O
 : -1.0%	4.0%
COC(=O)c1n[nH]n(-c2ccccc2)c1=O
 : -2.9%	-1.1%
Cc1cccc(C)c1NC(=O)CCS(=O)(=O)c1ccc2c(c1)n(C)c(=O)c(=O)n2C
 : -0.9%	-25.1%
CCc1ccc2occ(CC(=O)Nc3c(C(=O)Nc4ccc(OC)cc4)oc4ccccc34)c2c1
 : -1.6%	54.2%
O=C(Nc1ccc2nc(-c3cccs3)c(-c3cccs3)nc2c1)N1CCCCC1
 : 1.6%	-10.6%
COc1ccc2c(CNCc3ccc(C)o3)c(C(=O)O)n(Cc3ccccc3)c2c1
 : -0.5%	-11.0%
O=[N+]([O-])c1ccc2c(c1)/C(=C/c1ccc(C=S)cc1)C=C2
 : ?	1.1%
Cn1nc(C(=O)Nc2cccc(C(F)(F)F)c2)c2c1-c1ccccc1S(=O)(=O)C2
 : 0.9%	-0.2%
COCCNC(=O)c1ccc2c(=O)n(CCOC)c(SCC(=O)c3c[nH]c4ccccc34)nc2c1
 : 1.6%	-2.4%
CCCCN1C(=O)C(O)(CC(=O)c2ccc(C(C)(C)C)cc2)c2ccccc21 (stereo not given)
 : 5.0%	1.6%
COc1ccccc1N(Cc1cc2cccc(C)c2[nH]c1=O)C(=O)c1cccc(Cl)c1
 : 1.2%	25.1µM*
CNC(=O)C1CCC(Cn2c(=O)c3sccc3n(CC(=O)Nc3ccccc3)c2=O)CC1 (stereo not given)
 : 0.8%	-1.3%
Cc1ccc(Cn2c(=O)n(CCc3ccccc3)c(=O)c3sc4ccccc4c32)cc1
 : 1.5%	?
COC(=O)c1ccccc1NC(=O)c1cc(CN2CCOCC2)on1
 : -0.8%	1.1%
O=C(Nc1c(C(=O)Nc2ccc(F)cc2)oc2ccccc12)c1cc2ccccc2o1
 : 0.6%	?
Cc1cccc(-n2ncc3c(N4CCCCCC4)ncnc32)c1
 : 4.5%	-2.6%
COc1ccc(NCc2cccn2-c2nnc(N3CCOCC3)s2)c(OC)c1
 : 4.4%	-0.1%
O=C1NC[C@@H](CCCCN2CCN(CCc3ccccc3)C(=O)C2=O)N(Cc2ccccc2)C1=O
 : -0.7%	-0.2%
Cc1cc(C)c2oc(C(=O)Nc3ccc(S(=O)(=O)Nc4ncccn4)cc3)cc(=O)c2c1
 : -0.4%	0.7%
CCOC(=O)c1cc2c(=O)n3ccccc3nc2n(Cc2ccco2)c1=NC(=O)c1cccc(Br)c1
 : 16.8%	4.2%

Remaining list, next part
The line under a structure holds: PINK1 modulator	ClpP mod
Cc1ccc(NC(=O)N2CCC3(CC2)Oc2ccccc2C(=O)N3Cc2ccc(F)cc2)cc1
 : 0.2%	-1.7%
CCc1ccccc1NC(=O)CN(Cc1ccccc1)S(=O)(=O)c1ccc2nc(C)sc2c1
 : -1.0%	3.4%
CCOC(=O)c1c(NC(=O)CSc2cn(CCNC(=O)c3ccccc3F)c3ccccc23)sc2c1CCC2
 : 1.6%	-12.2%
COc1ccc(-c2nc(-c3ccccc3)c(-c3ccc(F)cc3)[nH]2)c(OC)c1C
 : 8.3%	4.6%
CCOc1ccc(S(=O)(=O)N2CCN(c3nc(-c4ccccc4)nc4ccccc34)CC2)cc1
 : 0.2%	?
COc1ccc(CC(=O)NCCc2csc(-c3cccc(F)c3)n2)cc1OC
 : 1.7%	0.3%
Nc1ccc[n+](CC(=O)c2ccc(F)cc2)c1
 : 4.1%	1.3%
COc1ccccc1CNC(=O)c1cccc(Nc2nc3ccccc3n3nnnc23)c1
 : 0.0%	7.1%
O=C(Nc1ccc2nc(SCC(=O)N3CCc4ccccc43)sc2c1)c1cccc(F)c1
 : 2.9%	4.2%
CCc1ccc(NC(=O)CN2CCN(Cc3ccccc3)S2(=O)=O)cc1
 : -0.8%	-1.3%
